Screening data deposited in PubChem by National Center for Advancing Translational Sciences (NCATS).
RE007 growth inh: less growth of the S. pombe RE007 Vpr strain; S. pombe RE007 Vpr strain, BacTiter-Glo ATP luminescence, 24 h; control for the full effect not named in the record; Potency, µM (series often up to 92.2 µM), for the others: top-dose activity change, negative = less growth; actives 0.21% (n = 360,000); active = well fitted falling curve with a large enough effect; inconclusive = small, poorly fitted or top-dose-only effect; inactive = no such curve, though single readings can be large or run the other way;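 further: on the % scale 0 is the no-effect control and ±100 the full control effect; nearly all actives have a fitted effect of over 50% in size; the assay follows cell death caused by Vpr and the record does not say whether a fall means rescue or toxicity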
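Fission yeast RE007 carrying one integrated HIV-1 vpr copy, seeded at OD 0.01 in PMG+AL medium with 23 nL pinned compound. Grown 24 h at 30 degrees; viability read by BacTiter-Glo luminescence after 5 min.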
StopGo reporter: FMDV 2A StopGo reporter, luciferase signal; human cells with a luciferase reporter of 2A StopGo recoding; control for the full effect not named in the record; Potency, µM (series often up to 57.9 µM), for inactives: at the highest dose signal change, negative = less light; actives 1.2% (n = 410,000); active = well fitted falling curve with a large enough effect; inconclusive = small, poorly fitted or top-dose-only effect; inactive = no such curve, though single readings can be large or run the other way; tested in HEK293T cells; further: on the % scale 0 is the no-effect control and ±100 the full control effect; nearly all actives have a fitted effect of over 45% in size; luciferase light after 4 h
Marburg entry inh: blocks Marburg virus binding to or entry into cells. Potency, µM (titrated, usually from 37.8 µM), without a hit: top-dose activity change, negative = inhibition, most hits filed as inhibitors. actives 1.8% (n = 300,000). AID 540276. Marburg virus pseudotyped entry inhibition, cell reporter; control for the full effect not named in the record; about a third of the inactives were read at about 46 µM; active = well fitted inhibition curve with a large enough effect; inconclusive = small, poorly fitted or top-dose-only effect, or effect the other way; inactive = flat fitted curve, though single readings scatter; tested in HEK293 cells; about a fifth of its hits are not listed in these tables; further: on the % scale 0 is the no-effect control and ±100 the full control effect; luciferase read-out
Cruzain noTriton: cruzain (T. cruzi) inhibition without detergent; P25779; purified cruzain, Z-FR-AMC fluorescence, no detergent; Potency, µM, for the others: max response, negative = inhibition, actives largely listed as inhibitors; actives 2.3% (n = 200,000); active means well fitted curve in the direction sought with a large enough effect; inconclusive means small, poorly fitted or top-dose-only effect, or another doubt; inactive means no such curve, though single readings can be large; an effect the other way counts as inactive or inconclusive;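 further: plate controls were enzyme without inhibitor for no effect and buffer without enzyme for full effect; nearly all actives have a fitted effect of over 40% in size; top concentration of the series not given in the record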
Target sequence (P25779 123-467 limits assumed): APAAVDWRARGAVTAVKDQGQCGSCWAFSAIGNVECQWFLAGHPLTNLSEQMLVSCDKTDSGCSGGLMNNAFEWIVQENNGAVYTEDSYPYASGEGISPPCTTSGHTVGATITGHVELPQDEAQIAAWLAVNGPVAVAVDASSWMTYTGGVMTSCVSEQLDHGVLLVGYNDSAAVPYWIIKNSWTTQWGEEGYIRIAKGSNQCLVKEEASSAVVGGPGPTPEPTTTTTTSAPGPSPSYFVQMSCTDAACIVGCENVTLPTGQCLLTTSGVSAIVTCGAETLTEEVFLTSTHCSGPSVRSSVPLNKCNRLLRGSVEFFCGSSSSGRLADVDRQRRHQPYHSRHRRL
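Detergent-free condition (0.00005% Triton X-100) in acetate buffer pH 5.5 with DTT. 1.5 nM enzyme and compound were pre-mixed 15 min, then 2 uM Z-FR-AMC substrate added; reaction progress from fluorescence change between first and third reads (60 s).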
SARS PLpro yeast: SARS-CoV PLP inhibition in yeast. S. cerevisiae expressing SARS-CoV PLpro, growth rescue; control for the full effect not named in the record. Potency, µM (doses to about 32.9 µM), for inactives: at the highest dose activity, positive = growth rescue. actives 0.19% (n = 330,000); further: 0% is about no effect; nearly all actives have a fitted effect of over 55% in size; growth read by luminescence after 48 h
Lassa entry inh: Lassa virus entry inhibition | Potency, µM (highest dose often 37.9 µM), inactives show top-dose activity change, negative = inhibition, hits mostly inhibitors | actives 1.2% (n = 300,000) | Lassa virus pseudotype entry inhibition, cell reporter; control for the full effect not named in the record; active means well fitted inhibition curve with a large enough effect; inconclusive means small, poorly fitted or top-dose-only effect, or effect the other way; inactive means flat fitted curve, though single readings scatter; tested in HEK293 cells; further: on the % scale 0 is the no-effect control and ±100 the full control effect; nearly all actives have a fitted effect of over 50% in size; luciferase read-out
NS1 function inh: blocks influenza NS1 protein function. actives 0.4% (n = 270,000). S. cerevisiae slowed by influenza A NS1, growth recovery by OD600. Potency, µM (doses to about 46.1 µM), for the others: top-dose activity, positive = more growth; further: actives are rising curves; nearly all actives have a fitted effect of over 50% in size
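Read-out: OD600 growth recovery of NS1-expressing budding yeast. Cells grown overnight at 30C in -URA glucose medium, washed, resuspended and diluted 1:100 in 2% galactose assay medium, pH 6.0. Same strain lacking NS1 served as positive control.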
Cruzain inh Det: blocks cruzain activity in presence of Triton detergent; purified cruzain, Z-FR-AMC fluorescence, 0.01% Triton; actives 0.43% (n = 200,000); Potency, µM, for the others: max response, negative = inhibition, most hits filed as inhibitors; AID 1478; active means well fitted curve in the direction sought with a large enough effect; inconclusive means small, poorly fitted or top-dose-only effect, or another doubt; inactive means no such curve, though single readings can be large; an effect the other way counts as inactive or inconclusive;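 further: plate controls were neutral wells for no effect and buffer without enzyme for full effect; nearly all actives have a fitted effect of over 40% in size; top concentration of the series not given in the record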
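Detergent-containing arm of a paired screen for aggregation-based inhibition: 0.01% Triton X-100 present. Cruzain at 1.5 nM cleaved 2 uM Z-FR-AMC at pH 5.5 with 5 mM DTT; AMC fluorescence gain over 60 s measured activity.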
Active calls of the source: *; ? = inconclusive; / = no result given; [ ] = another dose, or the depositor's remark. Unless noted, the call rests on the fitted dose curve; in most records, active means well fitted rising curve with a large enough effect; inconclusive means small, poorly fitted or top-dose-only effect; inactive means no such curve, though single readings can be large or run the other way. Potency means the concentration at half of the fitted maximal effect.

Order of values – Lassa entry inh, Cruzain inh Det, NS1 function inh, SARS PLpro yeast, StopGo reporter, RE007 growth inh, Cruzain noTriton, Marburg entry inh
- Cc1ccncc1CNC(=O)c1ccccc1
    0%[46.1 µM], /, /, /, 1%, 7%, /, ?
- COc1cc(/C=C/C(=O)NC(=O)c2ccccc2O)ccc1OC(C)=O
    /, /, 10%, -22%, 35%[activator], -26%, /, /
- CCC(=O)Nc1c(C)n[nH]c1C
    0%, 3.9%, 6%, 10µM*, -14%, 14%, 6%, 6%
- O=C(O)c1ccc2c(c1)SC1=NS(=O)(=O)CCN12
    7%[46.1 µM], /, 2%, 0%, -6%, 6%, /, 19%[46.1 µM]
- O=C(OCc1ccccc1)N1CCc2ccccc21
    ?, /, -29%, -2%, 9%, -5%, /, ?
- CCc1c(C)sc(NC(=O)C2CC2)c1C(=O)OC(C)C
    -3%, -5.7%, 0%, 4%, -22%, ?, 5%, -13%
- C=CCNc1nc(C(F)(F)F)nc2c1nnn2Cc1ccccc1Cl
    /, /, 6%, -5%, -16%, 0%, /, /
- CN(C)Cc1nc2c(c(=O)[nH]1)C1(CCCCC1)Cc1ccccc1-2
    ?, 1.8%, -4%, 2%, /, -11%, 11%, ?
- O=C(O)[C@@H]1CCCN1C(=O)COc1ccc2c3c(c(=O)oc2c1)CCC3
    /, /, 7%, 1%, -9%, 4%, /, /
- Clc1ccc2nc(NCc3ccccc3)c3nncn3c2c1
    4%[46.1 µM], 0.1%, /, /, 14%, /, 4%, 4%[46.1 µM]
- COc1ccccc1Oc1nc(-c2cccnc2)nc2ccccc12
    27%[46.1 µM], /, /, 0%, -15%, 3%, /, ?
- CCOC1OC(=O)C(Cl)=C1Nc1ccc(C)cc1C (configuration not stated)
    -13%, 3.6%, 6%, 2%, -5%, 33%, -7%, 14%
- COc1ccc(CCNC(=O)c2ccc3nc(N4CCOCC4)sc3c2)cc1OC
    /, /, -27%, 9%, -19%, -9%, /, /
- Cc1cc(C)cc(N(CCC#N)C(=O)COC(=O)c2nc3nc(C)cc(C)n3n2)c1
    -1%, /, /, 1%, -12%, -3%, /, ?
- Cc1cc(=O)oc(C)c1C(=O)n1nc(C)c2c1C[C@@H]1[C@H]2C1(C)C
    3%, -0.4%, -47%, -9%, -28%, 0%, 0%, -5%
- COc1ccc(C2CC2C(=O)c2ccccn2)cc1 (configuration not stated)
    ?, /, /, -5%, 37%[activator], -14%, /, -14%[46.1 µM]
- CCOc1cccc(C(=O)Nc2ccccc2N2CCN(C(=O)C(C)C)CC2)c1
    ?, -4.6%, -31%, -23%, -30%, -3%, ?, ?
- CSCC(=O)N1CCC(Oc2cccc(C(=O)NCc3ccccn3)c2)CC1
    /, /, -7%, -3%, -21%, -12%, /, /
- COc1cccc(OCc2cc(C(=O)NCc3ccc4c(c3)OCO4)no2)c1
    /, /, -19%, 3%, 0%, -12%, /, /
- CCc1c(O)nc(SCC(=O)Nc2nc3ccccc3s2)n(-c2ccccc2)c1=O
    19%, /, ?, -1%, -12%, 4%, /, 9%

The last 5 records of the part above lead into the next:
Order of values – Lassa entry inh, Cruzain inh Det, NS1 function inh, SARS PLpro yeast, StopGo reporter, RE007 growth inh, Cruzain noTriton, Marburg entry inh
- COc1ccc(C2CC2C(=O)c2ccccn2)cc1 (configuration not stated)
    ?, /, /, -5%, 37%[activator], -14%, /, -14%[46.1 µM]
- CCOc1cccc(C(=O)Nc2ccccc2N2CCN(C(=O)C(C)C)CC2)c1
    ?, -4.6%, -31%, -23%, -30%, -3%, ?, ?
- CSCC(=O)N1CCC(Oc2cccc(C(=O)NCc3ccccn3)c2)CC1
    /, /, -7%, -3%, -21%, -12%, /, /
- COc1cccc(OCc2cc(C(=O)NCc3ccc4c(c3)OCO4)no2)c1
    /, /, -19%, 3%, 0%, -12%, /, /
- CCc1c(O)nc(SCC(=O)Nc2nc3ccccc3s2)n(-c2ccccc2)c1=O
    19%, /, ?, -1%, -12%, 4%, /, 9%
- CC1(C)C(=O)Nc2ccccc2N1C(=O)COC(=O)c1ccc(NC(N)=O)cc1
    -5%, /, /, 4%, -27%, -3%, /, -4%[46.1 µM]
- Cc1cc(C)c(NC(=O)Cn2ncc3ccccc32)c(C)c1
    1%, /, 10%, -1%, -3%, 23%, /, 21%
- CCn1c(C)nc2cc(S(N)(=O)=O)ccc21
    21%, /, -1%, 1%, -1%, -12%, /, 26%[46.1 µM]
- O=C1Nc2ccc(Br)cc2C(c2ccc(Cl)cc2)=NC1O (configuration not stated)
    /, /, -1%, -1%, -5%, 0%, /, /
- C/C=C/C=C\C(=O)Nc1cccc(C2=NOC3(C2)C[C@H](C(N)=O)N(C(=O)/C=C/C)C3)c1 (some centres not stated)
    /, /, 5%, 2%, -3%, 5%, /, /
- CNC(=O)c1nnn(Cc2ccccc2)c1NC(=O)C(F)(F)F
    7%, 4.8%, -3%, 0%, 12%, 13%, 2%, ?
- CCOc1ccc(-n2c(-c3ccc(OC)cc3)c[n+]3c2CCCCC3)cc1
    ?, -0.7%, 1%, -3%, ?, -1%, -1%, ?
- O=C(O)CSc1ccc(Oc2ccc(SCC(=O)O)cc2)cc1
    7%, /, 2%, 1%, -16%, 6%, /, ?
- COc1ccc(CCCc2n[nH]c(=S)o2)cc1
    4%[46.1 µM], /, /, 1%, -1%, 13%, /, 1%[46.1 µM]
- COc1ccc(NC(=O)c2oc3c(c2C)-c2nn(Cc4ccccc4Cl)cc2CC3)cc1OC
    14%[46.1 µM], -1.3%, /, /, -28%, /, 6%, /
- O=C(O)CNC(=S)N(Cc1ccc(F)cc1)C1CCCCC1
    -11%, /, /, 1%, -7%, 1%, /, 19%[46.1 µM]
- Cc1ccc(Cn2nnnc2CN2CCC(O)(c3ccccc3F)CC2)cc1
    ?, -4.9%, -17%, -19%, /, 4%, ?, ?
- CN1CCC(=O)N(CCSc2ccccc2)CC1
    /, /, 22%, 2%, 65%[activator], 9%, /, /
- O=C(COC(=O)c1ccc(Cl)cc1[N+](=O)[O-])NC(=O)c1ccccc1
    9%[46.1 µM], /, 15%, 2%, -11%, -6%, /, -10%[46.1 µM]
- O=C(Nc1ccc(CN2CCOCC2)cc1)c1ccc(-c2cc(Cl)ccc2Cl)o1
    -30%, -19%, -3%, -5%, 28µM*, 1%, 25µM*, ?
- Cc1ccc(S(=O)(=O)N2CCN(Cc3nc4sc5c(c4c(=O)[nH]3)CCCC5)CC2)cc1
    -21%, -6.3%, 5%, -7%, -15%, -3%, -29%, 10%
- CC1CCN(C(=O)C(C)c2ccc([N+](=O)[O-])cc2)CC1 (configuration not stated)
    2%, /, /, -1%, -17%, -8%, /, -13%[46.1 µM]
- CCC(=O)c1ccc(OCC(=O)Nc2ccc3c(c2)OCCO3)cc1
    ?, /, /, -1%, 18%, -3%, /, ?
- Cc1c(NC(=O)CCC(=O)N2CCCCC2)c(=O)n(-c2ccccc2)n1C
    9%, 2.1%, 12%, 4%, -10%, -7%, -4%, -4%
- COc1ccc(Cl)cc1S(=O)(=O)N1CCC(O)(c2ccc(Cl)cc2)CC1
    /, /, -4%, 0%, -7%, 32%, /, /
- COc1ccc(CNC(=O)C2CCN(S(=O)(=O)c3c(C)noc3/C=C/N(C)C)CC2)cc1
    /, /, ?, -1%, 2%, 2%, /, /
- CC(Oc1ccc(Cl)cc1Cl)C(=O)N(Cc1ccco1)C1CCS(=O)(=O)C1 (configuration not stated)
    -13%, -1.9%, -5%, -2%, ?, -7%, ?, -13%
- O=c1[nH]c(O)c(N=Nc2ccc(SC(F)F)cc2)c(=O)[nH]1
    /, /, -2%, 0%, 2%, -9%, /, /
- Cn1c(SCC(=O)Nc2ccc(N3CCOCC3)c(Cl)c2)nnc1C(O)c1ccccc1 (configuration not stated)
    9%, 6.6%, -4%, 15%, -4%, -4%, 6%, -10%
- Cn1c(=O)[nH]c(=O)c2c1nc(N1CCCCC1)n2CCCSc1nc2ccccc2s1
    ?, -6.0%, -36%, 10%, ?, 2%, 11%, ?
- CNC[C@@H](CC1CCCCC1)NC[C@H](CC(C)C)NCCc1cccc(C(F)(F)F)c1
    /, /, ?, -14%, ?, 24%, /, /
- COc1ccccc1C(=O)NC(C)C(c1cccs1)N1CCN(C)CC1 (configuration not stated)
    21%[14.3 µM], -1.2%, -2%, 3%, 22%, 17%, 2%, 0%
- O=C(CNS(=O)(=O)c1ccc(Br)s1)N1CCN(c2ccccc2F)CC1
    -21%[46.1 µM], -4.7%, /, /, 7%, /, 1%, -8%[46.1 µM]
- O=C(Nc1ncc2c(n1)-c1ccccc1OC2)c1ccc(Cl)cc1
    -16%, -8.9%, -10%, -1%, 5%, 28%, -9%, 7%
- Cc1noc(C)c1C(=O)N1CCN(C(=O)c2sc3cc(Cl)ccc3c2Cl)CC1
    -33%[14.3 µM], -1.4%, -1%, 0%, ?, 17%, ?, 7%
- O=C(NNC(=O)C1CCN(Cc2cccc(F)c2)CC1)c1cccc(Cl)c1
    -6%, -1.9%, 9%, 3%, ?, 0%, -1%, -8%[46.1 µM]
- O=C(CSc1nc2ncc(Cl)cc2[nH]1)NCC(=O)Nc1ccc(F)c(F)c1F
    2%[46.1 µM], /, 2%, 0%, -14%, -15%, /, -15%[46.1 µM]
